VDR inh – blocks the human vitamin D receptor; VDR-SRC2-3 peptide fluorescence polarization, 2 h; Potency, µM, inactives show max response, negative = inhibition, hits mostly inhibitors; actives 0.93% (n = 400,000); P11473; active = well fitted inhibition curve with a large enough effect; inconclusive = small, poorly fitted or top-dose-only effect, or another doubt; inactive = no such curve, though single readings can be large or run the other way; note: series mostly up to about 120 µM
Target sequence (P11473 whole entry, looked up): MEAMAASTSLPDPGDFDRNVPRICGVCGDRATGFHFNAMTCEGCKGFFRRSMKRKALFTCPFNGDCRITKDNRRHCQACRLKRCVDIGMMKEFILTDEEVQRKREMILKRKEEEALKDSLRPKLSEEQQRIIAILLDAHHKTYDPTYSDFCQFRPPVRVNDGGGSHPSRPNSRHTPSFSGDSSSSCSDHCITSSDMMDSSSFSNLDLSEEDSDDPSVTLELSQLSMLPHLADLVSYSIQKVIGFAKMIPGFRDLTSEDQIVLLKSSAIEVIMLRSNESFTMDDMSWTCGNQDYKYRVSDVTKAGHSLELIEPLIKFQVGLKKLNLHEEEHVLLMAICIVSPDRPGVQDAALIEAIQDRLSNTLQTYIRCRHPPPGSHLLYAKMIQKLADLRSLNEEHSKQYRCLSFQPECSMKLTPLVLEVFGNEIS
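Fluorescence polarization assay of small-molecule disruption of VDR binding to coregulator peptide SRC2-3. Compounds and controls pin-transferred, then read after 2 h incubation at ambient room temperature.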
Active calls of the source: *; ? = inconclusive; & = joins results of further samples; [ ] = another dose, or the depositor's remark. % is set by controls: 0 for no effect and ±100 for the full control effect; potency is the fitted concentration of half-maximal effect. The list is partial; count on the stated rates, not on these rows.

SMILES	VDR inh
CNC(=O)CSCc1cnn(-c2ccccc2)c1-n1cccc1	1%
CCN1CCN(CC(=O)Nc2ccc(C)cc2C)C(=O)C1=O	-16%
O=S(=O)(c1ccc(-c2csc(-c3cccnc3)n2)cc1)N1CCOCC1	0%
CC1CCCC(NC(=O)COC(=O)c2cccc(S(=O)(=O)N3CCCCC3)c2)C1C (stereo not drawn)	-5%
CCCCNC(=S)Nc1cccc(S(=O)(=O)NC2=NCCC2)c1	-4%
COc1ccccc1NC(=O)c1ccc(C(=O)c2ccccc2)o1	-11%
CCOC(=O)C1CCN(C(=O)CC2(CC(=O)O)CCCC2)CC1	12%
CC(=O)C(Sc1ccc2nnc(-c3ccncc3)n2n1)C(C)=O	-1%
O=C(NC1CCN(S(=O)(=O)c2cccc([N+](=O)[O-])c2)CC1)C1CCCCC1	-2%
COc1ccc(CCNC(=O)CSc2nc(C)nc3c2oc2ccccc23)cc1OC	9%
O=C(NN=Cc1ccccc1O)C(O)c1ccccc1 (stereo not drawn)	-22%
C=CCN(c1ccccc1)S(=O)(=O)c1cccc(C(=O)Nc2nnc(SCC)s2)c1	17%
COc1ccc(NC(=O)Cn2cnc3c(cnn3-c3ccc(C)c(C)c3)c2=O)c(OC)c1	8%
Cc1oc2ccc(OCC(N)=O)cc2c1C(=O)OC(C)C	21%
CCC(=O)Nc1ccc(Cl)c(NC(=S)NC(=O)COc2ccc(Cl)cc2)c1	-15%
CCOc1ccc(CC(=O)NNC(=S)NC)cc1	-1%
C#CCOCCOCCOCCNc1nc(N2CCOCC2)nc(N2CCN(C(=O)[C@H](CCCCN)n3cc(CN)nn3)CC2)n1	17%
COc1cccc(NC(c2nnc(-c3ccccc3)o2)c2ccc(F)cc2Cl)c1 (stereo not drawn)	1%
NC(=O)c1cn(-c2ccccc2)nc1-c1cc2ccccc2oc1=O	4%
Cc1cccc(C)c1NC(=O)Cn1cc(C=O)c2ccccc21	1%

Exported in markdown: part of the list above.
| compound | VDR inh |
| --- | --- |
| COc1ccc(NC(=O)Cn2cnc3c(cnn3-c3ccc(C)c(C)c3)c2=O)c(OC)c1 | 8% |
| O=C(NC1CCN(S(=O)(=O)c2cccc([N+](=O)[O-])c2)CC1)C1CCCCC1 | -2% |
| CCCCNC(=S)Nc1cccc(S(=O)(=O)NC2=NCCC2)c1 | -4% |
| COc1ccccc1NC(=O)c1ccc(C(=O)c2ccccc2)o1 | -11% |
| CCC(=O)Nc1ccc(Cl)c(NC(=S)NC(=O)COc2ccc(Cl)cc2)c1 | -15% |
| CCOC(=O)C1CCN(C(=O)CC2(CC(=O)O)CCCC2)CC1 | 12% |

Continued:
SMILES	VDR inh
COc1cccc(COC(=O)c2ccc3c(c2)NC(=O)C(C)S3)c1OC (stereo not drawn)	6%
O=C(NCC1COCCO1)c1cc(COc2c(F)cccc2F)on1 (stereo not drawn)	-9%
CCSC1=C(C#N)C(CC(C)C)C2=C(CCCC2=O)N1 (stereo not drawn)	-13%
O=C(OCC(=O)c1cccc2ccccc12)c1ccc(CO)cc1	-4%
C[C@H](NC(=O)C1CC(=O)N(c2ccc(F)cc2)C1)C(=O)N1CCCCC1 (stereo partly drawn)	-21%
CCCCC(=O)Nc1nnc(SCC(=O)NC2CCCC2)s1	9%
COc1ccc(NC(=O)CN(C)C(=O)/C=C/c2ccc(OCc3ccccc3)cc2)cc1	-16%
CCCNC(=O)CCC(NS(=O)(=O)c1ccc(C)cc1)C(=O)NCCC (stereo not drawn)	9%
Cc1ccc(NC(=O)NCCSc2ccc(C)cc2)cc1	-7%
O=C(Nc1ccc(-c2csc(Nc3ccc(Cl)cc3)n2)cc1)c1cc([N+](=O)[O-])cc(C(F)(F)F)c1	-5%
O=C1CCC(C(=O)OC(C(=O)Nc2ccc([N+](=O)[O-])cc2Br)c2ccccc2)=NN1 (stereo not drawn)	-4%
O=C(NCCC(=O)N1CCN(Cc2c(F)cccc2Cl)CC1)c1ccc(Cl)cc1	-3%
Cc1cc2c(cc1S(=O)(=O)N(C)c1ccccc1)NC(=O)CO2	1%
O=C(CN1C(=O)NC2(CCc3ccccc32)C1=O)c1ccc2c(c1)OCCO2 (stereo not drawn)	23%
CCOC(=O)C1CCN(C(=O)COc2ccc(Cl)cc2)CC1	8%
Cc1cccc(N(C)S(=O)(=O)c2c[nH]c3ccc([N+](=O)[O-])cc23)c1	16%
O=C(Nc1ccccc1Cl)NC1(C(=O)NCc2cccnc2)CCCCC1	10%
CC(=O)Nc1ccc(S(=O)(=O)N2CCN(C(=O)c3cccnc3)CC2)cc1	9%
COc1ccc(C2NC(=O)NC(C)=C2C(=O)OCc2ccc3c(c2)OCO3)cc1OC (stereo not drawn)	5%
O=C(O)Cc1ccc(NC(=O)Nc2cccc(Cl)c2)cc1	5%

A draw from above in order of molecular weight, largest number first:
SMILES	VDR inh
O=C(Nc1ccc(-c2csc(Nc3ccc(Cl)cc3)n2)cc1)c1cc([N+](=O)[O-])cc(C(F)(F)F)c1	-5%
O=C(Nc1ccccc1Cl)NC1(C(=O)NCc2cccnc2)CCCCC1	10%
C[C@H](NC(=O)C1CC(=O)N(c2ccc(F)cc2)C1)C(=O)N1CCCCC1 (stereo partly drawn)	-21%
Cc1cccc(N(C)S(=O)(=O)c2c[nH]c3ccc([N+](=O)[O-])cc23)c1	16%
O=C(O)Cc1ccc(NC(=O)Nc2cccc(Cl)c2)cc1	5%

(continued)
SMILES	VDR inh
O=C(O)c1cc(-c2ccc3c(c2)OCO3)nc2ccc(Cl)cc12	-16%
Cc1csc2nc(-c3cccc(NC(=O)c4cccc(F)c4)c3)cn12	6%
CCCNC(=O)CSCc1nc(-c2ccc(SC)cc2)oc1C	-4%
NCCCC[C@H](NC(=O)CNC(=O)[C@@H]1CCCN1C(=O)[C@H](Cc1ccc(O)cc1)NC(=O)CN)C(=O)N[C@@H](Cc1ccccc1)C(=O)O	6%
COc1cccc(-n2nnc3c(=O)n(Cc4c(F)cccc4Cl)cnc32)c1	3%
COc1ccc(-c2nn(CCC#N)cc2C(=O)Nc2cccc(C(=O)O)c2)cc1[N+](=O)[O-]	-8%
CC(=O)Nc1cccc(NC(=O)COC(=O)C2CC3CCCC(C2)C3=O)c1 (stereo not drawn)	-1%
COc1ccccc1CNC(=O)Cn1c(=O)oc2ccccc21	8%
O=C(Nc1ccc(NC(=O)C23CC4CC(CC(C4)C2)C3)cc1)c1cc(F)c(F)cc1Cl	-24%
O=C(O)CC12CC3CC(C1)CC(n1ncc(NCc4ccc(F)cc4)c(Cl)c1=O)(C3)C2	-1%
COc1cc(OC)c(-c2nnc(-c3ccc(OC)c(OC)c3OC)o2)cc1OC	3%
COC(=O)C1=C(C)NC(=O)C1(NC(=O)c1cccnc1)C(F)(F)F (stereo not drawn)	-11%
CC1CCCC(NC(=O)COC(=O)c2ccc(N(C)C)cc2)C1C (stereo not drawn)	4%
COc1ccccc1N1CCN(CC(O)COc2ccc(C)cc2C(C)(C)C)CC1 (stereo not drawn)	5%
O=C(NC(Cc1c[nH]c2ccccc12)c1nnc2n1CCCCC2)c1cccs1 (stereo not drawn)	-8%
CCc1cccc2c(C(=O)COC(=O)c3ccc([N+](=O)[O-])s3)c[nH]c12	1%
CCOC(=O)CSc1nc2ccc(S(=O)(=O)N3CCOCC3)cc2[nH]1	-14%
COc1ncc2nc(-c3ccc(F)cc3)c(=O)n(CCc3ccccc3)c2n1	9%
O=C(NCCCn1ccnc1)c1ccc2nccnc2c1	39%[activator]
CC(=O)c1ccc(NC(=O)CCc2c(C)nc3c(c(C)nn3-c3ccc(C)cc3)c2C)cc1	4%
CC(C)(C)OC(=O)N[C@@H](Cc1ccccc1)C(=O)N[C@@H](CO)[C@H](O)[C@@H]1C[C@@H]1C(=O)NC1CCCCC1	-28%
CCn1c(=O)n(CC)c2cc(N3CCCC3)c(NC(=O)c3cccc(OC)c3)cc21	12%
CC(C)(C)NC(=O)C(Cc1ccccc1)NS(=O)(=O)c1cccc2nsnc12 (stereo not drawn)	-2%
CCOc1cc(CNC(C)(C)C)ccc1OCC(=O)Nc1cccc(C(F)(F)F)c1	32%[activator]
COc1ccccc1-n1cc(-c2ccc(Br)cc2)[nH]c1=S	?
COCCCNC(=O)CCn1c(=O)c2ccccc2n(CC(=O)Nc2cc(Cl)ccc2OC)c1=O	0%
CC1(C)OC(C(O)(c2ccccc2)c2ccccc2)[C@@H](C(O)(c2ccccc2)c2ccccc2)O1 (stereo partly drawn)	-9%
O=C(CSc1nncn1-c1ccccc1)NCc1cccs1	-7%
CCn1cc(SCC(N)=O)c2ccccc21	7%
COC(=O)c1ccc(CNC(=O)COC(=O)/C=C/c2ccc(O)c(OC)c2)cc1	1%
CC(C)OP(=O)(OC(C)C)C(NC(=O)c1ccc(Br)cc1)c1ccccc1 (stereo not drawn)	-12%
CN(C)c1ccc(S(=O)(=O)NCC(=O)OCC(=O)NC(=O)C2CCCCC2)cc1[N+](=O)[O-]	10%
CC1N(C(=O)N2CCOCC2)CCN1S(=O)(=O)c1ccc(Cl)cc1 (stereo not drawn)	-15%
Cc1noc(C)c1NC(=O)Nc1ccc2c(c1)C(=O)N([C@@H](C)CO)C[C@@H](C)[C@@H](CN(C)Cc1ccc3c(c1)OCO3)O2	-21%
Cc1ccc(N=Nc2cc(C)ccc2O)c(C)c1	23%
CC(C)N(C(=O)[C@H]1CC(CC(=O)NCC23CC4CC(CC(C4)C2)C3)C(=O)N2CCc3c([nH]c4ccccc34)[C@]12C)C(C)C (stereo partly drawn)	-3%
Cc1ccc(NC(=O)N(Cc2nc3ccccc3c(=O)[nH]2)Cc2cccs2)cc1	1%
O=C(NCCc1ccccc1)C1CCCN(S(=O)(=O)c2cnc[nH]2)C1 (stereo not drawn)	-27%
COC(=O)C(Oc1ccc2c(-c3ccc(OC)cc3)cc(=O)oc2c1)c1ccccc1 (stereo not drawn)	-2%
CCCCNC(=O)CCNS(=O)(=O)c1ccc(Br)cc1	5%
COc1ccc(Cl)cc1NS(=O)(=O)c1cccc(C(=O)N2CC(C)OC(C)C2)c1 (stereo not drawn)	5%
Cc1ccc(C(=O)NC2CCCCNC2=O)cc1 (stereo not drawn)	-4%
Cc1ccc2c(c1)cc(C(=O)NCc1ccccc1)n2C	33%[activator]
CCOC(=O)CNC(=O)c1sc2ncnc(N3CCc4ccccc4C3)c2c1C	3%
CC12CCC(C/C1=N/O)C2(C)CBr (stereo not drawn)	-1%
CC(=O)Nc1cccc(NC(=O)CCCC(=O)O)c1	3%
O=C(COc1ccc(Br)cc1)Nc1ccc(-c2nnc(-c3ccco3)o2)cc1	14%
COCCc1nn2c(=O)cc(COC(=O)COc3ccccc3C)nc2s1	9%
O=C(CSc1nnc(-c2cccnc2)n1CCc1ccccc1)N1CCCCC1	6%
CCN1/C(=C2/SC(=S)N(NC(C)=O)C2=O)Sc2ccc(Cl)cc21	-23%
C#CCOCCOCCOCCNc1nc(N2CCN(C(=O)[C@H](C(C)C)n3cc(CCO)nn3)CC2)nc(N2CCN(C(=O)[C@H](C(C)C)n3cc(CCO)nn3)CC2)n1	-13%
C=C1C2C[C@H](O)C(C)(C)[C@@]2(O)[C@H](O)C[C@]23C[C@@](C)(O)[C@H](CC[C@H]12)[C@H]3O (stereo partly drawn)	7%
CCOc1ccc(-c2nc3ccccc3c(=O)o2)cc1	14%&3%
C=CCn1c(=O)c2ccccc2n2c(SCc3nc4ccccc4s3)nnc12	17%
CCOC(=O)c1cccc(NC(=O)N2Cc3ccccc3Oc3ncccc32)c1	12%
CC(C)c1nc2c(c(=O)c3ccccc3n2C)c(=O)n1-c1ccc(F)cc1	-2%
C[C@H](CCC(=O)NCCS(=O)(=O)O)C1CC[C@H]2C3CC[C@@H]4C[C@H](O)CC[C@]4(C)C3C[C@H](O)[C@]12C (stereo partly drawn)	7%
CC(NC(=O)C1CCN(C(=O)c2ccc(F)cc2)CC1)c1ccc(-n2ccnc2)cc1 (stereo not drawn)	5%
Cc1ccccc1C(=O)Nc1nc2nc(C)c(C)c(=O)n2[nH]1	14%
CCOC(=O)c1c(C)nn(-c2ncccc2NC(=O)CCC(=O)O)c1C	32%

The results go on:
SMILES	VDR inh
COc1ccc(/C=C/C(=O)c2ccc3c(c2)OCCO3)cc1[N+](=O)[O-]	-27%
CC(=O)NC(c1cc(Cl)c2cccnc2c1O)C1CC1 (stereo not drawn)	2%
Cc1cc(C(=O)COC(=O)c2ccc[nH]c2=O)c(C)n1-c1ccccc1	-28%
CC1=C(c2ccc(Cl)cc2)S(=O)(=O)N=C1N1CCN(c2cccc(C)c2)C(C)C1 (stereo not drawn)	5%
CC1(C(=O)OCC(=O)NNC(=O)COc2ccc(Cl)cc2)CC1(Cl)Cl (stereo not drawn)	-10%
Cc1[nH]nc(-c2cccnc2)c1N=NN(C)C	?
Cc1ccc(N2CC(C(=O)Nc3ccc(S(=O)(=O)N4CCOCC4)cc3)CC2=O)cc1 (stereo not drawn)	7%
Cc1ccc2cccc(O)c2[n+]1[O-]	-3%
CCOc1ccccc1N1CC(C(=O)NNC(=O)c2cc(OC)c(OC)c(OC)c2)CC1=O (stereo not drawn)	8%
C#CCN1c2ccccc2Sc2cccnc21	13%
C=CCN1C(=O)c2ccc(C(=O)N3CCC(C(=O)OCC)CC3)cc2C1=O	-12%
COC(=O)C1=C(O)/C(=C\c2ccc(CNS(=O)(=O)c3ccccc3)o2)N=C1C	2%
O=C1CCCN1CCCNc1ccc(S(=O)(=O)N2CCCCC2)cn1	-2%
Nc1nnc(-c2ccccc2)s1	-4%

Shown with each value named: part of the list above.
C=CCN1C(=O)c2ccc(C(=O)N3CCC(C(=O)OCC)CC3)cc2C1=O
  VDR inh = -12%

COC(=O)C1=C(O)/C(=C\c2ccc(CNS(=O)(=O)c3ccccc3)o2)N=C1C
  VDR inh = 2%

O=C1CCCN1CCCNc1ccc(S(=O)(=O)N2CCCCC2)cn1
  VDR inh = -2%

Nc1nnc(-c2ccccc2)s1
  VDR inh = -4%
